High-throughput results: PubChem, several laboratories
MLL AF4-AF9 inh: inhibitors of human MLL-AF4/AF9 interaction; P42568; AlphaScreen, biotin-AF4 peptide binding to FLAG-AF9; inhibition, % at 10 µM; 0.47% of 350,000 active; AID 651704;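 active = every replicate reaching a set inhibition limit, whatever the replicate mean, cut at about 25% in these data; inconclusive = mean inhibition reaches that limit but some replicates miss it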;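 note: 0% = plate neutral control median and 100% = total signal loss; the record names both 10 and 1 µM as test concentration; the first replicate is given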
Target sequence (P42568 whole entry, looked up): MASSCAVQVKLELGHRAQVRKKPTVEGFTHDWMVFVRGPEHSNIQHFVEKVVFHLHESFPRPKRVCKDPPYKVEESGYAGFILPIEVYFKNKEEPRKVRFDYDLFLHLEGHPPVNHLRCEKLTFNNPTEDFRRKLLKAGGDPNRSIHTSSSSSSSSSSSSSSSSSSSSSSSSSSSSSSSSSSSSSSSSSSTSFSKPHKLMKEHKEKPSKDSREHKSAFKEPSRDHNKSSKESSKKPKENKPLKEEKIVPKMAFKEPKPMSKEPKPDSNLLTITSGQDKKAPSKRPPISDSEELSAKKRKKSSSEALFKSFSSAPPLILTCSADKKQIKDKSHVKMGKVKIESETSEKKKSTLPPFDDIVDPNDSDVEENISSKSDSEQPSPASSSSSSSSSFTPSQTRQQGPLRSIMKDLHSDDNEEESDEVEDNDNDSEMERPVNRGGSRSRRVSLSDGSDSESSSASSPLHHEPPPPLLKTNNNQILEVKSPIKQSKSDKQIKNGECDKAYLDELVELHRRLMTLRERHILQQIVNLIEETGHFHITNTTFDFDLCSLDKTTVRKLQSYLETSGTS
ALR H2O2 inh: inhibitors of human sulfhydryl oxidase ALR. P55789. purified ALR, DTT oxidation, H2O2 HRP-luminol luminescence. inhibition, % (concentration not given with the values). 3.8% of 290,000 active;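 active = mean and each replicate at 75% or more; inconclusive = only one of the two met; inactive = neither met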;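 note: stock transfer was 7.5 nL into about 7.5 µL; 0% = neutral wells and 100% = wells with inactivated enzyme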
Target sequence (P55789 whole entry, looked up): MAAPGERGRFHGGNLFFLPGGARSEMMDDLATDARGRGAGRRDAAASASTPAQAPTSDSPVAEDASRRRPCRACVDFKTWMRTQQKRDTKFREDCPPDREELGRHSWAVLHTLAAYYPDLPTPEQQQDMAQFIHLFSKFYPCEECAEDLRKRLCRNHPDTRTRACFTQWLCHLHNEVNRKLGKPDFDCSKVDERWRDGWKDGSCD
Vif TR-FRET: HIV-1 Vif–A3G interaction blockers – biochemical, TR-FRET, GST-Vif 1-94, biotin-A3G peptide, dose response retest, primary screen (AID 1117319) | TR-FRET GST-Vif / biotin-A3G peptide binding; higher % means a stronger effect; test concentration not given here; strong numbers were not always called active | one-dose inhibition, %; IC50 in µM for titrated hits | 0.57% of 260,000 active;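 active = above the screen mean plus three standard deviations and confirmed in dose response; inconclusive = results disagree or hit not tested in dose response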;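 note: Vif residues 1-94 fused to GST binding biotinylated APOBEC3G peptide 110-148; 0% = full assay without inhibitor and 100% = GST in place of GST-Vif; retest series ran down from 100 µM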
Ecoli growth: blocks Escherichia coli growth; OD600 absorbance (test concentration not listed); 0.21% of 330,000 active; OD600, 23 h; active compounds read low;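 active = OD600 absorbance below the run mean of sample wells minus 3.6 SD, in any replicate, cut at about 0.56 in these data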;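 note: stock transfer was 300 nL into about 60 µL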
HNF4A DNA FP: change in binding of human HNF4 alpha to DNA; P41235; 0.3% of 360,000 active; HNF4a-FITC DNA binding, fluorescence polarization, 1 h; activity change, % at 10 µM; AID 1224865; in the data active = activity change above about 30%, passing the limit was not always enough;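 note: controls were the assay level and a saturating level of protein; the project sought stronger binding though the title names inhibitors; some compounds called inactive have numbers as strong as hits; positive values seem to mean higher polarization but the record does not say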
rRNA inh HTS: selective bacterial rRNA inhibition in E. coli; E. coli WT GFP vs humanized-ribosome RFP mutants, fluorescence, 24 h; active compounds read low; DMSO median 0, no signal -100; 1.6% of 350,000 active; GFP signal change (wild-type ribosome), % (concentration not given with the values); AID 720706;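 active = significant combined selectivity score with lowered wild-type GFP, culture density cut under 30%, mutant RFP and density less affected; inactive = any of these conditions unmet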; note: one replicate is shown; some compounds called inactive have numbers as strong as hits
FGF22 binding: FGF22 (human) thermal shift binding; 1.5% of 340,000 active; calls only at 9.99 µM; recombinant FGF22 thermal shift, SYPRO orange fluorescence; percent of sucrose octasulfate shift, DMSO zero;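 active = melting point raised past a set limit in the mean and every replicate; inconclusive = no clear call; three in four hits are not shown here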
Target sequence (Q9HCT0 whole entry, looked up): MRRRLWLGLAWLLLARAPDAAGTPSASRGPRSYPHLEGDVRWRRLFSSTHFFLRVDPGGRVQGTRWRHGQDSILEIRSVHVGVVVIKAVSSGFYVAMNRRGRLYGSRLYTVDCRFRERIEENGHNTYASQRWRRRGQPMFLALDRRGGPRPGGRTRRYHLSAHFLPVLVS
rRNA inh HTS OD600: further read-out of rRNA inh HTS, marked with its call; OD600 change, %; measured here: OD600 growth;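 optical density of the mix in the first replicate; 0 = DMSO median and -100 = no signal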
rRNA inh HTS RFP: recorded beside rRNA inh HTS, whose call it bears; RFP signal change, %; measured here: RFP humanized mutant strains;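 first replicate; 0 = DMSO median and -100 = no signal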
Active calls of the source: *; i = inactive; u = inconclusive; x = no result given; + = active, no number; & = joins results of further samples. This is a subset; the hit share may differ from the screen's.

SMILES | MLL AF4-AF9 inh | ALR H2O2 inh | Vif TR-FRET | Ecoli growth | HNF4A DNA FP | rRNA inh HTS | rRNA inh HTS OD600 | rRNA inh HTS RFP | FGF22 binding
O=C(Nc1ccc(N2CCN(C(=O)c3cccs3)CC2)cc1)c1cccc(F)c1 | -18 | 7 | x | 0.65 | 3.4 | 4 | 9 | 0.8 | i
Cc1cc(C(=O)OCC(N)=O)c(C)n1-c1ccccc1 | 5.5 | -1 | 1% | 0.7 | -1.1 | -7 | -2 | 2.0 | i
CCCOc1cccc(OCCSc2nc(C)cc(=O)[nH]2)c1 | x | -5 | 2% | 0.7 | -0.1 | x | x | x | x
O=C(COC(=O)/C=C/c1ccccc1Cl)NC(=O)Cc1ccccc1 | 1.2 | -1 | x | 0.69 | 0.1 | -10 | -2 | 2.6 | i
O=C(Nc1ccc(F)cc1)N1C[C@H]2[C@@H](c3ccccc31)[C@@H](CO)N2C(=O)Cc1cccnc1 | -0.8 | x | x | x | x | 1 | -4 | -2.8 | i
O=C(CSC1=NCCN1)NC(c1ccccc1)c1ccccc1 | 0.7 | 99* | x | 0.73 | 10 | -8 | -2 | 7.7 | x
CCN(CC)Cc1cc(C(=O)O)c(-c2ccccc2)o1 | -2.0 | x | 11% | 0.68 | -4.9 | 20 | 11 | 1.1 | i
COc1ccc(C=C2c3ccccc3C(=O)c3ccccc32)c(OC)c1 | 11 | -8 | -10% | x | 2.4 | 9 | 5 | 3.1 | i
CC(=O)c1ccc(OC(=O)COc2ccccc2)cc1 | 1.8 | 28 | x | 0.7 | 3.3 | 24 | 13 | -0.5 | i
COc1ccc(NC(=O)c2ccco2)cc1NC(=O)c1cccc(OC(C)C)c1 | x | x | u | 0.72 | 2.4 | x | x | x | x
O=C(Nc1ccc(F)cc1)N[C@H]1CC[C@@H](CCn2cc(-c3ccccc3F)nn2)O[C@H]1CO | -1.0 | x | x | x | x | -12 | -20 | -0.5 | +
O=C(COC(=O)CSc1ccc(Br)cc1)NCc1ccco1 | -1.8 | 13 | 4% | 0.68 | 1.0 | 2 | 11 | 0.8 | i
CC(C)NC(=O)C1CC(=O)N(CCc2ccc(F)cc2)C1 (stereo not drawn) | -2.3 | x | 0% | x | -0.1 | 5 | -3 | 3.7 | i
COc1cccc(N2CN(C3CCCCC3)CNC2=S)c1 | -2.6 | x | u | 0.68 | 0.9 | 4 | -14 | -3.0 | i
O=C(CN1CCOCC1)NCC[C@H]1CC[C@H](NC(=O)c2ccc3c(c2)OCO3)[C@@H](CO)O1 | 0.8 | x | x | x | x | 4 | 2 | -0.3 | i

Looked up above:
Value for COc1ccc(C=C2c3ccccc3C(=O)c3ccccc32)c(OC)c1 in ALR H2O2 inh: -8
Value for O=C(Nc1ccc(F)cc1)N1C[C@H]2[C@@H](c3ccccc31)[C@@H](CO)N2C(=O)Cc1cccnc1 in rRNA inh HTS OD600: -4

Next structures
SMILES | MLL AF4-AF9 inh | ALR H2O2 inh | Vif TR-FRET | Ecoli growth | HNF4A DNA FP | rRNA inh HTS | rRNA inh HTS OD600 | rRNA inh HTS RFP | FGF22 binding
Cc1ccc(-c2nc(NCC3CCCO3)sc2C)cc1 (stereo not drawn) | 2.2 | 51 | 1% | 0.7 | -1.7 | 3 | 3 | 2.4 | i
Cc1cccc(C)c1N(CC(=O)Nc1cc(Cl)ccc1Oc1ccccc1)S(C)(=O)=O | x | -17 | 1%&1% | 0.72 | 1.1 | x | x | x | x
N#CC(C(=O)OCc1ccccc1)c1nc2ccccc2nc1N1CCOCC1 (stereo not drawn) | x | 5 | 10% | 0.69 | 2.2 | x | x | x | x
Cc1csc(OCC(=O)Nc2ccc(C)c(C)c2)n1 | x | x | 24% | 0.77 | -0.2 | x | x | x | x
CC1CCCCC1NC(=O)CSc1ncnc2sccc12 (stereo not drawn) | 4.4 | x | -19% | x | 1.3 | 12 | 17 | 0.8 | i
C[C@@H]1CN([C@H](C)CO)C(=O)Cc2cc(NC(=O)CCCCCC(=O)Nc3ccccc3N)ccc2O[C@H]1CN(C)C(=O)NC1CCCCC1 | -3.2 | x | x | x | x | -1 | 1 | -0.4 | i
Cc1ccc(C(=O)Nc2c(C(=O)N3CCOCC3)cnn2-c2ccccc2)cc1 | x | 7 | 3% | 0.7 | 1.3 | x | x | x | x
C#CCOc1c(Br)cc(/C=N\NC(=O)CN2CCOCC2)cc1OCC | x | -4 | -7% | x | 1.3 | x | x | x | x
NC(=O)N1c2ccccc2CC(=O)c2ccccc21 | 3.8&-1.5 | x | 2%&-5% | 0.68 | -13 | 4 | 5 | 2.4 | i
COC(Cn1cc(C)c(=O)[nH]c1=O)OC | -2.6 | x | -7% | 0.73 | -1.2 | 6 | 0 | 1.2 | i
C[C@H]1CN([C@@H](C)CO)C(=O)Cc2cc(NC(=O)Cc3cn(C)c4ccccc34)ccc2O[C@@H]1CN(C)Cc1ccc(C(=O)Nc2ccccc2N)cc1 | -1.2 | x | x | x | x | -4 | 4 | -1.1 | i
Cc1ccc(CN2CCN(CC(=O)NCCCN3CCN(c4ccc(F)cc4)CC3)C2=O)cc1 | x | 31 | -7% | 0.63 | 0.2 | x | x | x | x
CCCNC(=O)C1(C)CCCN(C(=O)c2ccc(OC)cc2OC)C1 (stereo not drawn) | -3.2 | x | x | x | -0.7 | 12 | 3 | 1.6 | i
CCc1ccc2oc(C(=O)NCCc3ccc(S(N)(=O)=O)cc3)cc(=O)c2c1 | 0.4 | -5 | 3% | 0.71 | -4.1 | -34* | -22* | -7.1* | i
Cc1ccc(S(=O)(=O)N2C[C@H](O)COC[C@H]3O[C@@H](CC(=O)N4CCc5ccccc5C4)CC[C@@H]32)cc1 | 1.7 | x | x | x | x | -6 | -8 | 2.9 | i
COc1ccc(CNC(=O)c2ccc(S(=O)(=O)N3CC(C)CC(C)C3)cc2)cc1OC (stereo not drawn) | -1.9 | x | x | 0.64 | 3.0 | -11 | -12 | 2.9 | i
COc1ccc(CCC(=O)Nc2ccc(N3CCOCC3)c(S(=O)(=O)Nc3ccc(OC)cc3)c2)cc1 | 0.5 | x | x | 0.71 | 0.3 | 4 | -4 | 3.1 | i
COc1ccc(NC(=O)Nc2cccc3c2O[C@@H](CN(C)CC2CCCCC2)[C@@H](C)CN([C@H](C)CO)C3=O)cc1 | 3.4&6.2 | -4 | x | x | 0.4 | 0&-1 | 6&-14 | -2.1&5.0 | i
O=C(C[C@H]1CC[C@H](NS(=O)(=O)c2ccc(F)cc2)[C@@H](CO)O1)N1CCN(c2ccccc2)CC1 | 0.9 | x | x | x | x | 1 | -9 | 1.9 | i
Nc1nnc(SCc2ccc(F)cc2)s1 | x | -2 | 8% | 0.71 | 1.6 | x | x | x | x
COc1ccc(CCNC(=O)c2cc3c(=O)n4cccc(C)c4nc3n(Cc3ccco3)c2=N)cc1OC | 0.8 | 76* | x | x | -11 | 27 | 4 | 2.0 | i
CCN(CC)C(=O)C1=C(C)N(Cc2ccc(F)cc2)C(=O)C(CC(=O)NCCN2CCOCC2)C1 (stereo not drawn) | -0.8 | x | -4% | x | 0.3 | 17 | 13 | 4.4 | i
Cc1ccc(S(=O)(=O)CC(=O)Nc2ccccn2)cc1 | -0.1 | 0 | x | 0.66 | -2.6 | 10 | 6 | 0.9 | i
CCCCCC(=O)N1CC2(CC)CN(C(=O)CCCCC)CC(CC)(C1)C2=O | -12 | -7 | -6% | 0.72 | -0.6 | -2 | -5 | 2.3 | i
COc1ccc(NC(=O)Cc2c(Sc3ccccc3)c3ccccc3n2C)cc1 | 3.3 | 0 | 3% | 0.73 | -1.8 | 10 | 15 | -0.4 | i
C/C(=N\NC(=O)c1nnn(-c2nonc2N)c1CN(C)c1ccccc1)c1ccccc1O | -3.0 | -4 | x | x | 1.2 | -27 | -56 | 2.6 | i
CN1CCN(CC(O)COCCOc2ccc(Br)cc2)CC1 (stereo not drawn) | x | -30 | -1% | 0.73 | 4.6 | x | x | x | x
COc1cccc(CNCC(=O)N2C(C)CCCC2C)c1 (stereo not drawn) | x | -44 | 3% | 0.72 | -3.1 | x | x | x | x
CCc1nnc(NC(=O)c2ccc(S(C)(=O)=O)cc2)s1 | -17 | -2 | x | 0.7 | -0.8 | 5 | 0 | -6.2 | i
CNc1nc(C)c(C#N)c(-c2ccccc2)c1C(C)=O | x | -11 | -3% | 0.74 | 4.4 | x | x | x | x
O=C(Nc1ccc(Cl)cc1)NC1(C(=O)NCCCN2CCOCC2)CCCCC1 | x | -4 | -4% | 0.68 | -0.8 | x | x | x | x
CCOC(=O)N1CCN(C(=O)C(C)SCc2ccccc2)CC1 (stereo not drawn) | u | -3 | 23% | 0.7 | 1.7 | 12 | 7 | -2.3 | i
Cc1cc(C)n2nc(C(=O)N3CCOCC3)nc2n1 | x | x | -5% | 0.67 | 0.8 | x | x | x | x
CCOc1ccc(-c2[nH]ncc2Oc2ccccc2OCC)c(O)c1 | x | 3 | 2% | 0.74 | 0.5 | x | x | x | x
Cc1ccc(Nc2c([N+](=O)[O-])ccc3c2=NC2(CCCCC2)N=3)cc1 | x | -1 | u | 0.63 | 2.1 | x | x | x | x
O=C(NCC(=O)N(CC1CCCO1)C(C(=O)NC1CCCCC1)c1cccnc1)c1cccs1 (stereo not drawn) | -3.2 | x | -2% | 0.64 | 1.0 | 7 | 11 | 0.9 | +
Nc1nc(=S)c2[nH]cnc2[nH]1 | -1.3 | 10 | x | x | 1.9 | 6 | 13 | 3.9 | i
COc1ccc2c3c(n(C)c2c1)[C@@H](CO)N(Cc1ccccc1OC)CC31CCN(CC2CCOCC2)CC1 | 7.4 | x | x | x | x | 2 | 10 | 4.3 | i
O=C(O)CC(C(=O)O)C(c1ccccc1)c1ccccc1 (stereo not drawn) | 0.1 | x | 0% | 0.66 | 2.3 | 9 | -10 | -1.4 | i
CCOc1ncccc1C(=O)OCC(=O)Nc1cc(S(=O)(=O)N2CCOCC2)ccc1C | x | 0 | x | 0.67 | 1.1 | x | x | x | x
CC(C(=O)Nc1ccc(C(N)=O)cc1)N1C(=O)c2ccccc2S1(=O)=O (stereo not drawn) | -1.4 | 4 | 5% | 0.59 | 0.1 | 8 | 6 | -0.9 | i
COc1ccc(N2CCN(C(=O)COC(=O)c3ccc(-n4nc(C)cc4C)cc3)CC2)cc1 | -4.6 | 1 | 4% | 0.63 | 0.2 | x | x | x | i
O=C(Nc1ccc(-c2cnco2)cc1)c1ccc(F)cc1F | 1.7 | 0 | -4% | 0.66 | -6.4 | 6 | -7 | -1.3 | i
COc1ccc(C(C#N)c2ccc(=O)[nH]n2)cc1 (stereo not drawn) | -0.9 | 9 | -2% | 0.7 | 1.2 | 15 | 8 | 0.6 | i
COCC(=O)Nc1ccc2c(c1)C(=O)N(C)[C@H]1CC[C@@H](CC(=O)Nc3ccccc3)O[C@H]1CO2 | 1.7 | x | x | x | x | 3 | 5 | -4.7 | i
CCC(=O)Nc1sc2c(c1C(=O)N(C)C)CCCCC2 | x | 1 | -2% | 0.67 | 4.7 | x | x | x | x
CCn1c(CSc2nnc(-c3ccncc3)n2CCOC)nc2cc(C(=O)O)ccc21 | -4.1 | -33 | 13% | 0.68 | 1.8 | 5 | 10 | 64 | x
CN=C1c2c(-c3ccccc3)c3cc(OC)ccc3n2CCN1C | x | -13 | 4% | 0.74 | -1.0 | x | x | x | x
C[C@@H]1CN([C@@H](C)CO)C(=O)c2cccc(NC(=O)C3CCOCC3)c2O[C@H]1CN(C)Cc1ccc(-c2ccccc2)cc1 | 1.8 | x | x | x | x | -5 | -6 | 2.0 | i
